# PrP UTR inh = inhibition of PrP 5' UTR reporter expression; cell-based PrP 5' UTR mRNA reporter, plate reader; inhibition, % (test concentration not listed); 0.35% of 340,000 active;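 active means every replicate at 50% or more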;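 further: 0 = median of the neutral control wells; tested in H4 reporter cells; numbers are from one replicate; inactives centre near -14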
# Bead autofluor = flagged as autofluorescent in microsphere protease counterscreen | fluorescence intensity (concentration not given with the values) | 3.1% of 360,000 active | compound autofluorescence counterscreen, microsphere flow cytometry; stronger effect = higher value;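 active means at least 3 SD above the mean of all compounds, about 16000 in these data; inconclusive means too few beads counted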;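 further: 100 nL of 1 mM stock went into each well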
# Mtb hypoxia rep = reduces hypoxia-regulated biosensor signal in M. tuberculosis. M. tuberculosis hypoxia-regulated fluorescent reporter, fluorescence. fluorescence inhibition, % (test concentration not listed). 0.1% of 300,000 active. AID 1159583;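 active means 35 to 45% if threefold the growth effect, above 45% if 1.5-fold the growth effect; inactive means the rest, general growth blockers included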;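 further: wells of about 50 µL received 100 nL stock; 0% = vehicle wells and 100% = reference inhibitor wells; whole bacteria with a GFP reporter of the hypoxia response; strong numbers were not always called active; many hits fall short of the cut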
# Sa ugtP lethal = compounds lethal to S. aureus RN4220 ugtP deletion mutant. OD600 growth, 16 h; some inactives read as strong as hits. 0.54% of 330,000 active. growth inhibition, % (concentration not given with the values). AID 1259309;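 active means z-score under -3 and OD600 up to 0.15 on both plates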;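 further: plate controls were untreated wells for no effect and antibiotic for full effect; wells of about 80 µL received 100 nL stock; the first replicate is given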
# BJeLR viability = BJeLR cell viability loss. BJeLR (HRASV12) viability, CellTiter-Glo ATP luminescence, 48 h; reference of the scale not given here. inhibition, % (test concentration not listed). 0.17% of 300,000 active. AID 1554;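 active means replicate mean above 50%; inconclusive means above 50% but judged a plate artefact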;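 further: 50 nL library stock added to about 25 µL; numbers are from one replicate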
# RN4220 kill = S. aureus RN4220 growth inhibition | OD600, 16 h | inhibition, % (test concentration not listed) | 0.33% of 330,000 active;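 active means z-score of -3 or lower and OD600 up to 0.18 on both plates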;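 further: plate controls were untreated cells for no effect and reference antibiotic for full effect; stock transfer was 100 nL into about 80 µL; one replicate is shown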
# Mtb hypoxia rep growth = recorded beside Mtb hypoxia rep, whose call it bears; growth inhibition, %; measured here: M. tuberculosis growth (absorbance);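 0% = vehicle and 100% = reference antibiotic; read after six days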
# Starred values were filed as active, the others as inactive; ? = inconclusive; . = no result given. No enrichment for hits; overall some 4.1% were active at least once.
# Values run as follows: BJeLR viability, Bead autofluor, PrP UTR inh, Sa ugtP lethal, Mtb hypoxia rep growth, RN4220 kill, Mtb hypoxia rep
> Cc1ccc2c(Cl)c(C(=O)NCCCn3ccnc3)sc2c1
  6, ?, -33, -1, 8, 4.7, 0
> COc1cc(COCC(O)CN2CCN(Cc3ccc4c(c3)OCO4)CC2)cc(OC)c1OC (stereo not given)
  -4, 2010, -16, 8, 0, 5.3, 7
> COCc1nnc(NC(=O)CCCOc2ccccc2)s1
  3, 5354, -7, -12, 5, 6.0, 1
> CNc1ccccc1NC(=O)CCn1c(=S)oc2ccccc21
  -3, 5711, -12, 11, 13, 6.2, 10
> COc1ccc(C=NN=C2SCC(=O)N2c2c(C)n(C)n(-c3ccccc3)c2=O)cc1OC
  ., ., ., 3, 5, 0.5, 5
> CN(Cc1ccco1)C(=O)CCc1nc2sc3c(c2c(=O)[nH]1)CCCC3
  -5, 4527, 3, 1, -6, 1.6, 5
> CCOC(=O)N1CCN(C(=O)CCNS(=O)(=O)c2ccc(C)c(C)c2)CC1
  -10, 6539, -3, ., ., ., .
> O=C(O)c1cccc(-n2c(O)c(C=C3N=c4ccccc4=N3)sc2=S)c1
  11, 5057, -33, 1, 1, 7.8, 5
> COC(=O)c1ccc(C2/C(=C(/O)c3ccc(Cl)cc3)C(=O)C(=O)N2C2CCS(=O)(=O)C2)cc1 (stereo not given)
  5, 4206, -23, 1, 3, 0.9, 2
> NN1C(=O)/C(=C2/Sc3ccccc3N2CCCS(=O)(=O)O)SC1=S
  -1, 3890, -16, 3, 12, 2.1, 7
> Cc1cccc(/C=N/NC(=O)c2cc(Br)ccc2O)n1
  2, 3833, -4, ., ., ., .
> CCN(CC(=O)N1CCOCC1)S(=O)(=O)c1ccccc1
  1, 5034, -3, 7, -5, 1.0, -11
> N/C(=N\OC(=O)c1ccc2ccccc2c1)c1ccccn1
  -4, 2450, 53*, ., ., ., .
> CC1=C(C(=O)OCC(C)C)C(c2ccsc2)NC(=O)N1 (stereo not given)
  -7, 16729*, -12, -1, 0, 4.4, 5
> COC(=O)C[C@H]1c2cc(F)cc(F)c2S(=O)(=O)N1C1CCN(Cc2ccccc2)CC1
  9, 3621, -11, ., ., ., .
> Cc1cccc(C)c1N1CCc2cn[nH]c21
  8, 2871, -20, 2, ., 1.6, .
> COc1ccc(C2SCC(=O)N2C)cc1 (stereo not given)
  5, 7772, -19, 13, 12, 2.9, 17
> O=C(Nc1cccc(-n2cnnn2)c1)c1ccncc1
  -1, 4467, -5, 2, 1, 1.8, 5
> CCOC(=O)Nc1ccc(S(=O)(=O)NCCCN2CCOCC2)cc1
  2, 17393*, -19, 7, -1, 4.9, 5
> O=C(O)c1ccc(NC(=O)C2(c3ccccc3)CCOCC2)cc1
  1, 2100, -5, 4, ., 2.4, .
> CCn1c(Cc2cccc3ccccc23)nnc1SCC(=O)Nc1nccs1
  -4, 2312, -9, -3, ., -3.0, .
> CCOC(=O)C1CCCN(c2nc3c(C)cccn3c(=O)c2/C=C(\C#N)C(=O)NCc2ccco2)C1 (stereo not given)
  0, 5907, -15, 3, -3, 4.7, 12
> CCN(CC)C(=O)CSC1=Nc2ccccc2C2=NC(c3ccccc3)C(=O)N12 (stereo not given)
  -4, 4487, 2, -1, -1, -0.6, 2
> CCc1ccc(C(=O)C(C)OC(=O)CN2C(=O)NC3(CCCC3)C2=O)cc1 (stereo not given)
  ., 3932, -23, 10, -3, 5.6, 6
> COc1ccccc1NC(=S)NC12CN3CN(CN(C3)C1)C2
  -1, 4328, -17, 4, 0, 0.1, -2
> CC1(C)Cc2ccccc2-c2nc(CN3CCOCC3)[nH]c(=O)c21
  0, 22251*, -4, -1, 6, 8.3, 6
> Cc1cc(C(=O)NN=Cc2c(C)n(C)c3ccccc23)n[nH]1
  ., ., ., 4, 1, -0.4, -5
> CCOC(=O)C1(CCCc2ccccc2)CCN(C2CCC2)CC1
  14, 4193, -17, 5, -2, 3.1, -6
> O=C(NCc1ccc2c(c1)OCO2)c1ccc(Br)cc1
  -12, 4289, -2, 3, ., -0.1, .
> COc1ccc(CCNC(=O)CSCc2ccc(C)cc2)cc1OC
  0, 2741, -12, -1, ., -3.2, .

# Just PrP UTR inh, for some of the entries so far:
SMILES,PrP UTR inh
O=C(NCc1ccc2c(c1)OCO2)c1ccc(Br)cc1,-2
COc1ccc(CCNC(=O)CSCc2ccc(C)cc2)cc1OC,-12

# The list continues:
# Values run as follows: BJeLR viability, Bead autofluor, PrP UTR inh, Sa ugtP lethal, Mtb hypoxia rep growth, RN4220 kill, Mtb hypoxia rep
> Cc1cccc(C(=O)NCC(=O)OCc2nnc(-c3ccccc3)o2)c1
  -3, 6856, -22, 4, -2, 0.1, -3
> Cc1ccc(N2CC(O)Cn3c2nc2c3c(=O)[nH]c(=O)n2C)cc1 (stereo not given)
  -5, 3581, -19, 6, 0, 3.4, 5
> COCCn1c(-c2ccc(Cl)cc2)nc2oc3cc(OC)ccc3c(=O)c2c1=O
  -1, 6669, ., -6, -1, 5.8, 5
> COc1ccc(C2c3ccc(O)cc3Oc3ncn(CCN4CCOCC4)c(=N)c32)cc1OC (stereo not given)
  -5, 4720, -9, 0, -1, 0.9, 11
> CCn1cc(CN(C)C(=O)CSc2nc(-c3ccco3)cc(C(F)(F)F)n2)c(C)n1
  2, 3232, -5, -12, 6, 8.3, 1
> O=C(C1COc2ccccc2O1)N1CCc2ccccc2C1 (stereo not given)
  0, 2404, -19, -6, ., 3.9, .
> CCC(CC)C(=O)Nc1cc(C(=O)OC)ccc1C(=O)OC
  2, 2425, -14, -1, 9, 2.0, 9
> CC(C)CC(c1nnnn1C(C)C)N1CCN(c2cccc(Cl)c2)CC1 (stereo not given)
  8, 2429, -35, 15, ., 2.0, .
> COc1c2ccoc2c(OCC(O)C(C)(C)O)c2oc(=O)ccc12 (stereo not given)
  ., ., ., -1, 3, 2.0, 1
> CCN1C(=O)[C@H]2[C@@H](c3ccc(-c4ccc(Cl)c(Cl)c4)cc3)N[C@@](C)(C(=O)OC)[C@H]2C1=O
  10, 4007, -20, ., ., ., .
> CCn1ccnc1CN1CCCC(C(=O)c2ccc(OC)cc2OC)C1 (stereo not given)
  3, 4279, -9, 0, 7, 1.9, 9
> O=C(N/N=C/c1cc([N+](=O)[O-])ccc1O)/C(=C\c1cccs1)NC(=O)c1ccccc1
  4, 2486, 16, ., ., ., .
> COc1ccccc1CNC(=O)COc1ccccc1C(=O)c1cnn(-c2ccccc2)c1
  ., 9004, -81, -7, 4, 2.0, -5
> CCOC(=O)C1CCN(S(=O)(=O)c2ccc(OCC(=O)OC)cc2)CC1
  -5, 5937, -31, -5, 8, -2.4, -2
> COc1ccc(OC)c(N=Cc2c(O)c3ccccc3oc2=O)c1
  -3, 3571, -15, 10, 4, 2.7, 13
> CCCCn1c(CCC(=O)O)nc2cc(S(=O)(=O)N(CC)CC)ccc21
  0, 3599, -19, 4, 7, 5.3, 9
> Cc1cc(OC(C)C(=O)NCc2cccnc2)c2c(C)c(C)c(=O)oc2c1 (stereo not given)
  -4, 5586, -16, -1, -8, 0.6, 4
> CN(Cc1cccc(Cl)c1Cl)C(=O)c1cccc(S(=O)(=O)N2CCN(Cc3ccccc3)CC2)c1
  -2, 5440, -20, 6, 5, 3.8, 3
> COc1ccc(NC(=S)NC(=O)/C=C/c2ccco2)c(OC)c1
  -8, ., -2, 12, -6, -0.7, -1
> O=c1[nH]c(C2CCN(S(=O)(=O)c3cccc([N+](=O)[O-])c3)CC2)nc2c1nnn2Cc1ccccc1
  -2, 4372, -10, 1, 2, 4.5, -11
> COc1ccccc1N1CCN(C(=O)CCCN2C(=O)c3cccc4cccc(c34)C2=O)CC1
  4, 2812, -7, 7, 2, 5.1, 9
> O=C(Nc1cccc(S(=O)(=O)NC2=NCCC2)c1)c1cc(-c2ccccn2)nc2ccccc12
  -2, 5004, -22, -3, 3, 0.4, -5
> O=C(c1ccccc1-c1ncc[nH]1)N1CCCC(Nc2ccc(F)cc2)C1 (stereo not given)
  1, 5894, -7, -13, 3, -5.4, -6
> Cc1cnn(-c2cc(N/N=C/c3ccccc3F)ncn2)c1
  -6, 3764, -18, ., ., ., .
> CCOC(=O)C(NC(C)=O)(Nc1ccc(S(=O)(=O)Nc2onc(C)c2C)cc1)C(F)(F)F (stereo not given)
  -4, 6306, -23, 7, ., 1.3, .
> O=C(O)c1ccc(NC(=O)C2(c3ccccc3)CCCC2)cc1
  -4, 4873, -27, 6, 16, 3.2, 4
> CSc1ncc(C(=O)Nc2ccc(C(C)=O)cc2)c(C)n1
  4, 3847, -29, 7, 3, 0.9, -5
> CCCCCCSc1ccc(C2C3C(=O)N(CC)C(=O)C3[C@]3(C(=O)OC)CCCN23)cc1 (stereo not given in full)
  ., ., ., 7, 0, 5.2, 4
> CCN(CC)S(=O)(=O)c1ccc(NC(=O)c2ccc(OCC3CCCO3)cc2)cc1 (stereo not given)
  ., 2945, 11, -4, 3, -0.9, -4
> COCCSc1ccccc1C(=O)Nc1nccs1
  2, 5508, -16, 10, 6, 3.3, 16
> O=[N+]([O-])c1ccc(N2CCN(S(=O)(=O)c3ccccc3[N+](=O)[O-])CC2)cc1NCc1cccnc1
  6, 2312, -14, -16, -1, 12, -1
> COc1ccc(O)c2c(=O)c3c(OC)cc4c(c3oc12)C1C=COC1O4 (stereo not given)
  -5, 5064, 25, 1, ., 5.3, .
> Cc1ccc(-c2csc(N3CCN(c4cc5c(cc4Cl)nc(C)n5CCN4CCCCC4)CC3)n2)cc1
  -5, 5534, -16, 6, -1, -3.6, 9
> CCOc1cc(NC(=S)NCC(C)C)c(OCC)cc1NC(=O)c1cccs1
  -8, 9319, 1, 1, -3, 6.6, -5
> Cc1ccc2nc(-c3ccc(NS(C)(=O)=O)cc3)cc(-c3ccccc3)c2c1
  -3, 8317, -11, 46, 9, 0.3, 4
> Cc1ccc(-c2nnc(NC(=O)CCS(=O)(=O)c3ccccc3)o2)c(C)c1
  -1, 5711, 0, 15, 7, -4.0, -5
> CC(=NNS(=O)(=O)c1ccc(Cl)cc1)c1ccc2c(c1)OCO2
  ., ., ., 22, 1, 3.1, 3
> CC(=O)Oc1cccc2c1C(=O)c1c(OC(C)=O)cc(C(=O)O)cc1C2=O
  -4, 5835, -12, ., ., ., .
> N#Cc1c(Nc2ccccc2)c(C=NN=Cc2ccccc2)c[nH]c1=O
  ., ., ., 14, 9, -1.8, 10
> N#Cc1ccc(C(=O)Nc2nnc(-c3cccs3)o2)cc1
  4, 5492, -2, 33, 10, 51, -8
> O=C(NN=Cc1ccc(F)cc1)c1ccccc1
  ., ., ., 4, -2, 2.3, 12
> CCOC(=O)Cc1sc(N)nc1C
  -15, 10228, -25, 5, 0, 2.3, 4
> COCC(C)n1c(C)cc(C(=O)COC(=O)c2oc3ccccc3c2C)c1C (stereo not given)
  -3, 3656, -13, 35, ., -1.7, .
> CC(C)[C@H](NC(=O)CCn1nnc2ccccc2c1=O)C(=O)O
  5, 8616, -27, 2, 0, 1.6, 0
> CC1C(=O)C(C)C(c2ccc(Cl)cc2)NC1c1ccc(Cl)cc1 (stereo not given)
  -6, ., ., 4, 15, -13, 11
> COc1ccc(-c2noc(CN(C(=O)C(C)(C)C)C(C)C)n2)cc1
  -1, 2738, -20, -2, ., 0.1, .
> CN1CCc2cc3c(c4c2[C@H]1[C@H](O)c1ccccc1-4)OCO3
  9, 4004, -8, ., ., ., .
> COc1ccc(-c2cc(C(=O)N3CCN(c4ccccc4OC)CC3)no2)cc1OC
  7, 4198, -14, ., ., ., .
> N#C/C(=C\Nc1ccccc1SC(F)(F)F)c1nc(-c2ccc(F)cc2)cs1
  3, 2699, -14, 12, -13, 0.8, -6
> Cc1ccsc1C1C=C(c2cccc(Br)c2)Nc2ncnn21 (stereo not given)
  9, 2769, -16, -2, 8, -6.0, 9
> COc1ccc(C)cc1NC(=O)NC1CCN(Cc2ccccc2)CC1
  -9, 11750, -14, -3, 12, 3.8, 7
> Cc1cc(C(=O)Cn2nc(C(=O)O)c3ccccc3c2=O)c(C)n1CC(F)(F)F
  0, 4503, -43, 11, 0, 5.2, -5
> CCC(CC)C(=O)c1c[nH]c(C(=O)NCCCn2ccnc2)c1
  0, 22434*, 0, -1, 0, 0.5, -3
> CCN(CC)C(=O)[C@H]1C[C@H](CC(=O)NCc2ccco2)C(=O)N2CCc3c([nH]c4cc(CCC(=O)N(C)C)ccc34)[C@]12C
  ., 3542, -15, 5, 1, -0.4, 4
> COc1ccccc1NS(=O)(=O)c1ccc(C)c(C(=O)NCC2(N(C)C)CCCCC2)c1
  ., 4048, -1, -5, -10, 0.6, -9

# High-throughput results from PubChem BioAssay.
